Screening results from PubChem.
GIV Gai3 FP = GIV-Galpha-i interaction inhibition; actives 0.42% (n = 210,000); Galpha-i3/FITC-GIV peptide fluorescence polarization, 90 min; active compounds read low; scaled: aluminum fluoride 0%, vehicle 100%; P08753; percent of control (FP), % (no concentration beside the values);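 active = replicate mean at 85% of control or lower, very high polarization wells dropped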;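 also: wells of about 15 µL received 100 nL stock; the first replicate is given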
Target sequence (P08753 whole entry, looked up): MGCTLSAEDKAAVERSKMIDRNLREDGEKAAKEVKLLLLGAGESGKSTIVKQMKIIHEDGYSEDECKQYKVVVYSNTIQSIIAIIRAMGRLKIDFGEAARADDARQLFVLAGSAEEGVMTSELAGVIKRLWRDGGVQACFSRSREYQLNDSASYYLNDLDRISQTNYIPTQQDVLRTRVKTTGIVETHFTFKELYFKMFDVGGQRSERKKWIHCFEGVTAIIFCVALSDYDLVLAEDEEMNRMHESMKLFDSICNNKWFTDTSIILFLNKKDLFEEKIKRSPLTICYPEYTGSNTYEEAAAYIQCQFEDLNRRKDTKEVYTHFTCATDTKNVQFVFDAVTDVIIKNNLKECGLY
Sa growth inh = blocks Staphylococcus aureus growth; S. aureus RN4220 growth, OD600, 20 h, 42 °C; active compounds read low; relative growth, % (test concentration not listed); actives 0.53% (n = 170,000);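 active = growth at 42 °C up to 50% and 20 or more points under that at 30 °C, or under 10% at both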;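 also: 300 nL library stock went into each well; scaled to the means of positive and negative controls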
Sa growth inh second temp = recorded beside Sa growth inh, whose call it bears; relative growth, %; measured here: growth at 30 °C;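 optical density after 20 h as mean of two plates; 100% = untreated growth and lower means inhibition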
* hit, by the source's call; . = no result given. Not all compounds are listed. The share of hits here may be higher or lower than overall.

Results follow in this order: GIV Gai3 FP | Sa growth inh | Sa growth inh second temp
> CCN1CCN(C(=O)/C=C/c2cn(-c3ccccc3)nc2-c2cccnc2)CC1
  . | 127 | 99
> COc1ccccc1NC(=O)c1c(C)[nH]c(=S)c(C#N)c1-c1ccc(C)o1
  . | 80 | 93
> CO[C@H]1C=CO[C@@]2(C)Oc3c(C)c(O)c4c(O)c(c(C=NN5CCN(C6CCCC6)CC5)c(O)c4c3C2=O)NC(=O)C(C)=CC=C[C@H](C)[C@H](O)[C@@H](C)[C@@H](O)[C@@H](C)[C@H](OC(C)=O)[C@@H]1C
  . | 3.9* | 3.6*
> CN1CCN(NS(=O)(=O)c2ccc(Br)s2)CC1
  . | 118 | 100
> O=S(=O)(c1ccc2c3c(cccc13)CC2)N1CCSC1
  . | 90 | 92
> CCOc1ccc(S(=O)(=O)NCCC(=O)OC2CCOC2=O)cc1 (configuration not stated)
  . | 96 | 97
> NNC(=O)c1sc(-c2ccccc2)cc1N
  . | 93 | 79
> O=C(Nc1ccc(S(=O)(=O)Nc2ncccn2)cc1)C1=NN(c2ccccc2)C(=O)CC1
  . | 69 | 81
> CCCCn1c(=O)n(C)c(=O)c2c(C(F)(F)F)cc(C)nc21
  . | 99 | 95
> COc1ccc(CCN2C(=O)CC(Nc3ccccc3)C2=O)cc1OC (configuration not stated)
  . | 82 | 93
> CC=C1[C@H]2C=C(C)C[C@]1(N)c1ccc(=O)[nH]c1C2
  . | 92 | 84
> CC(C)CC(NC(=O)C(COC(C)(C)C)NC(=O)C(Cc1ccc(O)cc1)NC(=O)C(CO)NC(=O)C(Cc1c[nH]c2ccccc12)NC(=O)C(Cc1cnc[nH]1)NC(=O)C1CCC(=O)N1)C(=O)N[C@@H](CCCN=C(N)N)C(=O)N1CCCC1C(=O)NNC(N)=O (some centres not stated)
  . | 92 | 86
> COc1ccc(-c2csc(/C(C#N)=C(\O)CSc3nnc(-c4ccccc4F)n3C3CC3)n2)cc1OC
  . | 85 | 93
> COc1ccc(Cc2nnc3n2N=C(c2ccc(C)c(C)c2)C(C)S3)cc1OC (configuration not stated)
  . | 67 | 72
> O=S(=O)(c1cccs1)N(c1cccc(F)c1)S(=O)(=O)c1cccs1
  . | 101 | 92
> OC[C@H]1O[C@@H](n2cnc3c(NC4CCCC4)nc(Cl)nc32)[C@@H](O)C1O (some centres not stated)
  . | 89 | 77
> CCOC(=O)c1ccc(NC(NC(=O)OC)(c2ccccc2)C(F)(F)F)o1 (configuration not stated)
  . | 95 | 90
> NS(=O)(=O)c1ccc(Oc2ccccc2)cc1
  . | 89 | 98
> Cc1nc(-c2c(C)[nH]c3ccccc23)cs1
  . | 107 | 95
> CC(C)C(NC(=O)c1ccco1)C(=O)Nc1sc2c(c1C(N)=O)CCC2 (configuration not stated)
  . | 103 | 91
> CC(Sc1nc2ccccc2c(=O)n1C)C(=O)NC(N)=O (configuration not stated)
  . | 96 | 93
> Cc1cccn2c(=O)c3cc(C(=O)N4CCCCC4)sc3nc12
  . | 98 | 85
> CCNC(=O)CCOc1cccc(C)c1
  . | 91 | 88
> CCOc1ccc(-n2c(SCC(=O)O)nc3ccccc32)cc1
  . | 98 | 99
> Cc1ccsc1C(=CCCN1CCC[C@@H](C(=O)O)C1)c1sccc1C
  . | 97 | 87
> S=c1[nH]c(-c2ccccc2)cn1/N=C/c1ccncc1
  . | 102 | 90
> COc1cc(CNC(=O)CCCC/C=C\C(C)C)ccc1O
  . | 98 | 93
> CC(c1cccs1)n1nccc1NC(=O)CCC(=O)O (configuration not stated)
  . | 83 | 94
> N=C1c2ccccc2CN1NC(=O)CC12CC3CC(CC(C3)C1)C2
  . | 105 | 104
> CCC(CC)NC(=O)COc1nc2ccccc2nc1C
  . | 91 | 97

Complete entries, looked up by structure:
CCC(CC)NC(=O)COc1nc2ccccc2nc1C is listed with GIV Gai3 FP = .; Sa growth inh = 91; Sa growth inh second temp = 97
CCNC(=O)CCOc1cccc(C)c1 is listed with GIV Gai3 FP = .; Sa growth inh = 91; Sa growth inh second temp = 88

Continued.
Results follow in this order: GIV Gai3 FP | Sa growth inh | Sa growth inh second temp
> O=C1c2c(O)cc(O)cc2O[C@H](c2ccc(O)c(O)c2)[C@@H]1O
  . | 90 | 71
> COc1ccc(NS(=O)(=O)c2ccc(Oc3ncccn3)cc2)cc1
  . | 85 | 98
> OCCN1C[C@H](O)[C@@H](O)[C@H](O)[C@H]1CO
  . | 99 | 92
> NC(=O)COC(=O)C1CCN(S(=O)(=O)c2ccccc2C(F)(F)F)CC1
  . | 90 | 95
> CC1CN(Cc2cc(Cl)c3cccnc3c2O)CC(C)O1 (configuration not stated)
  . | 0.6* | 0.7*
> Cc1sc2c(c1C)CN(C1CCCC1)CN2C(=O)c1ccccc1
  . | 91 | 90
> COc1ccc(NS(=O)(=O)c2ccc3oc(Nc4ccc(C)c(F)c4)nc3c2)cc1
  . | 94 | 103
> CN(C)c1nc(N)c(C#N)c(CC#N)c1C#N
  . | 68 | 73
> CC1SCCN1S(=O)(=O)c1ccc2ccccc2c1 (configuration not stated)
  . | 117 | 86
> O=c1c(O[C@@H]2O[C@H](CO)[C@@H](O)[C@H](O)[C@H]2O)c(-c2ccc(O)c(O)c2)oc2cc(O)cc(O)c12
  . | 62 | 60
> CCOC(=O)CC1C(=O)NCCN1C(=O)c1cc2c(=O)n3ccccc3nc2s1 (configuration not stated)
  . | 94 | 94
> CCOC(=O)c1c(NC(=O)CSc2nnc(CNC(=O)c3ccco3)n2Cc2ccccc2)sc2c1CCC2
  109 | . | .
> O=C1CCc2cc(NC(=O)C3CCC3)ccc2N1
  105 | . | .
> O=C1CN(Cc2cccc(F)c2)S(=O)(=O)c2ccccc2N1Cc1ccc(F)cc1
  107 | . | .
> O=C(CSc1nccc2c1ccn2Cc1ccccc1)N1CCN(c2ccc(F)cc2)CC1
  110 | . | .
> Cc1cccc(N2CCN(C(=O)c3cccc(N4C(=O)C5CC=CCC5C4=O)c3)CC2)c1C (configuration not stated)
  108 | . | .
> O=C1CSC(c2cccc(NS(=O)(=O)c3cccc4nsnc34)c2)N1 (configuration not stated)
  105 | . | .
> CCn1nccc1C(=O)N1CCC(Nc2ncnc3c2CCC3)CC1
  109 | . | .
> CCOC(=O)C1=C(C)N=c2s/c(=C/c3ccc(OC)cc3C)c(=O)n2C1c1cc(OC)ccc1OC (configuration not stated)
  121 | . | .
> COc1cc(OC)cc(C(=O)Nc2cc(C(=O)Nc3ccccc3F)ccc2N2CC3CC(C2)c2cccc(=O)n2C3)c1 (configuration not stated)
  111 | . | .
> CCOC(=O)C1=c2s/c(=C\c3cccnc3)c(=O)n2C(N)=C(C(=O)OC)C1c1cccnc1 (configuration not stated)
  120 | . | .
> CC1=C(C(=O)Nc2ccc(Cl)cc2)C(c2ccncc2)C(C#N)=C(SCc2ccccc2)N1 (configuration not stated)
  119 | . | .
> CC(=O)C1=NN(c2ccc(Cl)cc2)C2(S1)c1ccccc1C(c1ccc(Cl)cc1)=NN2c1ccccc1 (configuration not stated)
  101 | . | .
> O=C(NC1CCCCC1)c1ccc(Oc2ccnc(-c3ccc(F)cc3)n2)cc1
  99 | . | .
> Cc1[nH]n(-c2ccccc2)c(=O)c1C(c1ccc(N(C)C)cc1)c1c(C)[nH]n(-c2ccccc2)c1=O
  104 | . | .
> O=C(NC1CC1)C1=C(c2ccccc2)OCCS1
  106 | . | .
> Cc1noc(C)c1C1CCCN1C(=O)c1cc(C2CCCCC2)no1 (configuration not stated)
  91 | . | .
> CC(=O)N1CCOc2ccc(CN(C(=O)C(C)C)c3ccc(C)cc3)cc2C1
  103 | . | .
> O=S(=O)(NC1CCCCCC1)c1ccc(-c2nnc(C3CC3)o2)o1
  102 | . | .
> CCc1nc(-c2cc(S(=O)(=O)Nc3ccc(F)cc3F)c(C)s2)cs1
  102 | . | .
> CC(C)(C)C(=O)Nc1cccc(OCc2cc(=O)n3ccccc3n2)c1
  107 | . | .
> CCCC(CCC)C(=O)Nc1ccc2c(c1)N(C(=O)CCN1CCN(C)CC1)c1ccccc1CC2
  118 | . | .
> COc1ccc(CCNC(=O)CCn2c(SCc3cccc([N+](=O)[O-])c3)nc3ccccc3c2=O)cc1OC
  104 | . | .
> O=C(CCC(=O)N1CCCN(c2nc3cccnc3s2)CC1)N1CCN(c2ccccn2)CC1
  104 | . | .
> Clc1cccc(-c2noc3ncnc(NC4CCCC4)c23)c1
  108 | . | .
> Cc1c(NC(=O)CSc2nc3ccc(NC(=O)c4ccc(Cl)cc4)cc3s2)c(=O)n(-c2ccccc2)n1C
  101 | . | .
> COc1ccc(C2(O)CN(c3ccccc3)C3=[N+]2CCCS3)cc1 (configuration not stated)
  100 | . | .
> CC(C)NC(=O)c1ccc(-c2nc3cc(NS(=O)(=O)Cc4ccccc4)ccc3n2C)cc1
  98 | . | .
> CCOc1cc(-c2nc3sc4c(c3c(=O)[nH]2)CCCC4)ccc1OCCOc1ccc(C(C)CC)cc1 (configuration not stated)
  110 | . | .
> Cc1ccc(-c2csc3c2ncn2c(=O)n(CC(=O)Nc4ccc5c(c4)CCC5)nc32)cc1
  98 | . | .
> CCOc1ccc(-c2c(C)[n+]3c(n2-c2ccc(OCC)cc2)CCCCC3)cc1
  103 | . | .
> Cc1nn(-c2ccc3nnc(C)n3n2)c2c1C(c1ccc(OCc3ccc(F)cc3)cc1)CC(=O)N2 (configuration not stated)
  98 | . | .
> CC1CCCN(C(=O)c2cc3c(s2)N(C)CCC3)C1 (configuration not stated)
  106 | . | .
> O=C(NCCCN1CCOCC1)c1ccc(Oc2nccnc2Sc2ccc(Cl)cc2)cc1
  102 | . | .
> CC(C)CCn1c(SCc2nc(-c3cccc(Cl)c3)no2)nc2cc3c(cc2c1=O)OCO3
  110 | . | .
> Cc1ccccc1-n1c(=S)sc2c1nc(SCc1cccc([N+](=O)[O-])c1)n1c3ccccc3nc21
  109 | . | .
> Cc1ccc(-c2nc3cnc(Br)cn3c2Nc2ccc3c(c2)OCO3)cc1
  108 | . | .
> COc1cc(C2=N/C(=C\C(Br)=C\c3ccccc3)C(=O)O2)cc(OC)c1OC
  115 | . | .
> COc1ccc(-c2noc(N3CCC(C(=O)Nc4cc(C)on4)CC3)n2)cc1OC
  106 | . | .
> O=C(Nc1ccc(S(=O)(=O)N2CCCCC2c2cccnc2)cc1)c1ccccc1[N+](=O)[O-] (configuration not stated)
  102 | . | .

Next records:
Results follow in this order: GIV Gai3 FP | Sa growth inh | Sa growth inh second temp
> C=CCNC(=S)c1c(-c2ccccc2)c2c3n(c(-c4ccc(Br)cc4)nn13)CCCC2
  110 | . | .
> Cc1ccc(CSc2nc3cc(C(=O)NC4CCCC4)ccc3c(=O)n2CC2CCCO2)cc1 (configuration not stated)
  103 | . | .
> CCOC(=O)C1=NN(c2ccc(C)cc2)C2(S1)SC(c1ccccc1)(c1ccccc1)c1ccccc12 (configuration not stated)
  113 | . | .
> Cc1ccc(C(=O)Nc2cnn(C)c(=O)c2N2CCCCC2)cc1
  98 | . | .
> CCOc1ccc(N=C2SC(C(=O)Nc3ccc(Br)cc3)CC(=O)N2C)cc1 (configuration not stated)
  111 | . | .
> CCOC(CNC(=O)c1ccc2nc3[nH]c4ccccc4c3nc2c1)OCC
  103 | . | .
> O=C(C1CCN(c2cn[nH]c(=O)c2)CC1)N1CCC2(CC1)OCCO2
  108 | . | .
> CCOC(=O)C1=C(c2ccccc2)N=C2SCC(=O)N2C1c1c(OC)ccc2ccccc12 (configuration not stated)
  117 | . | .
> CCOC(=O)C1=C(C)N=c2s/c(=C/c3ccc(N4CCOCC4)o3)c(=O)n2C1c1ccccc1OC (configuration not stated)
  111 | . | .
> Cc1sc(-c2cc(C(F)(F)F)on2)cc1S(=O)(=O)NC1CCCCCC1
  94 | . | .
> CCOc1cccc2c1OC1(CCC(C)CC1)N1N=C(c3ccc(C)o3)CC21 (configuration not stated)
  119 | . | .
> CC1C=CCC2C(=O)N(c3cccc(C(=O)N4CCN(c5ccc(F)cc5)CC4)c3)C(=O)C12 (configuration not stated)
  101 | . | .
> CCCS(=O)(=O)c1c(S(=O)(=O)CCC)c2ccc(C(C)=O)cn2c1C(=O)c1ccc(OC)cc1
  107 | . | .
> Cc1ccc(CNC(=O)CCC(=O)Nc2noc3ccccc23)cc1
  96 | . | .
> CCn1nc2ccc(S(=O)(=O)N3CCC(C)CC3)cn2c1=O
  107 | . | .
> CCOc1cc(C2Nc3ccc4ccccc4c3C3=C2C(=O)CC(c2ccccc2)C3)ccc1O (configuration not stated)
  111 | . | .
> COc1ccc(OC)c(NC(=O)c2sc3ncn(CC(=O)Nc4ccc(C)c(Cl)c4)c(=O)c3c2C)c1
  102 | . | .
> CCN1c2ccccc2C(=O)NC12CCN(C(=O)Nc1ccc3c(c1)OCO3)CC2
  98 | . | .
> Cn1c(SCC(=O)NC2CCCC2)nc2cc(-c3ccccc3)sc2c1=O
  101 | . | .
> COc1ccc(C(=O)COC(=O)C(Cc2c[nH]c3ccccc23)NC(=O)c2ccc(Cl)cc2)cc1 (configuration not stated)
  101 | . | .
> Cc1ccc(Oc2ccc(-c3noc(CNS(=O)(=O)c4ccccc4)n3)cc2)cc1
  103 | . | .
> O=C(c1csc(-c2ccnc(N3CCOCC3)c2)n1)N1CCN(c2ccccn2)CC1
  104 | . | .
> CCCN1CCN(c2ncnc3sc(C(=O)Nc4ccccc4OCC)c(C)c23)CC1
  97 | . | .
